# Source: PubChem
# Menin MLL FP FL – inhibitors of human menin-MLL interaction, wild-type MLL peptide; Fluorescence polarization, fluorescein-MLL peptide displacement from menin; FP activity change, % at 61.4 µM; 290,000 tested, under 10 active; inconclusive = falling polarisation curve, or a change in total fluorescence; inactive = total fluorescence flat and polarisation flat or rising; no compound was filed as active; the % refers to the polarisation; negative = inhibition;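 further: % of control where 0% means no effect; inhibitors lower the polarisation; unlabelled MLL peptide was the positive control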
# ClpP mod – qHTS Assay for Activators of ClpP. ATP-dependent Clp protease proteolytic subunit (Bacillus subtilis (strain 168)), P80244. purified B. subtilis ClpP, FRET peptide cleavage, 20 min. Potency, µM (titrated, usually from 57.5 µM), for the others: at the highest dose activity change, negative = active. hit rate 1.9% among 340,000. AID 651965, 2013; active = well fitted falling curve with a large enough effect; inconclusive = small, poorly fitted or top-dose-only effect; inactive = no such curve, though single readings can be large or run the other way; further: potency means the concentration at half of the fitted maximal effect; the source files actives as falling curves though it sought activators and does not explain the sign; nearly all actives have a fitted effect of over 65% in size; many hits overshoot -100%
# Target sequence (P80244 whole entry, looked up): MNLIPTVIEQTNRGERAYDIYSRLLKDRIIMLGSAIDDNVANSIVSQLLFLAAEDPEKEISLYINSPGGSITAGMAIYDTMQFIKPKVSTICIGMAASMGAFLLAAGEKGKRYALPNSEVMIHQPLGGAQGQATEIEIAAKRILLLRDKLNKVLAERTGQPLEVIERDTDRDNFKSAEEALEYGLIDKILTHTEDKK
#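 Buffer: 100 mM Tris/HCl pH8, 100 mM KCl, 0.05% low protease BSA, 2.5% glycerol, 0.01% Tween-20. ClpP 10 microg/mL final; 20 min RT; delta FRET normalized to ADEP and DMSO controls.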
# PINK1 expr mod – PINK1 expression modulation | PINK1 immunofluorescence, high-content cytometry, 24 h | Potency, µM (titrated, usually from 76.6 µM), for inactives: at the highest dose activation (PINK1 increase), hits mostly activators | hit rate 0.2% among 410,000 | AID 624263; active = well fitted activation curve with a large enough effect; inconclusive = small, poorly fitted or top-dose-only effect; inactive = flat fitted curve, though single readings scatter; cell line not stated here;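 further: potency means the concentration at half of the fitted maximal effect; % of control where 0% means no effect; nearly all actives have a fitted effect of over 65% in size; a mitochondrial uncoupler was the plate control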
#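 PINK1 protein, normally rapidly degraded, was detected by immunofluorescence after 24 hour compound treatment of a stable cell line. Titration data (5 concentrations) came from laser-scanning cytometry, with CCCP-treated wells as controls.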
# TRPML1 agonist – agonists of human TRPML1 channel. TRPML1-expressing cells, Ca2+ dye fluorescence, FDSS; host cell line not named in the record; reference of the full effect not given here. activation, % (no concentration beside the values). hit rate 0.12% among 410,000. AID 624414. Q9GZU1; in the data active = activation above about 50%; inconclusive = about 30% to 50%; inactive = below about 30%; further: 0% is about no effect; the text of the record puts the active cut at 80%
# Target sequence (Q9GZU1 whole entry, looked up): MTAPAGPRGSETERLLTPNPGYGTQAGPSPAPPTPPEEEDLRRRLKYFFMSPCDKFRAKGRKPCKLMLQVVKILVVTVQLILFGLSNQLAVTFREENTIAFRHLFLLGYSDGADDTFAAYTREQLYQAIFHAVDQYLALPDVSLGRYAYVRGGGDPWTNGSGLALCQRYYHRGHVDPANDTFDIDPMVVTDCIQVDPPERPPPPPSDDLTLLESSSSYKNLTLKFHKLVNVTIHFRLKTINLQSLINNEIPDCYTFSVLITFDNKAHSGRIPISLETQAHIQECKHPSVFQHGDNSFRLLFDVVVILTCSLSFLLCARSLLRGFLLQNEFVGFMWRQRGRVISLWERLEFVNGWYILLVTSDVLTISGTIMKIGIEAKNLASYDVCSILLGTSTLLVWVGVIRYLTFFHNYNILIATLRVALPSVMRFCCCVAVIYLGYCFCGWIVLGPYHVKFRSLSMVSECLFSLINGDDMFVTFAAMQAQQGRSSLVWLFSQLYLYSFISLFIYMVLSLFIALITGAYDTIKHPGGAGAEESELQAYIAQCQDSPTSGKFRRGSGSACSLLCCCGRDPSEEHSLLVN
#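 Agonist activity was taken from a 110 s kinetic Ca2+ dye read on the FDSS after pinning compounds onto TRPML1-DL cells. The cells were seeded at 1,500/well with Tet inducer, incubated about 16 h, then dye-loaded at room temperature.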
# TRPML1 blocker – inhibitors of human TRPML1 channel. Q9GZU1. TRPML1-inducible cells, Ca2+ dye fluorescence, FDSS; stronger effect = lower value; inhibition of EC80 agonist-evoked calcium signal. activity change, negative = inhibition, % (test concentration not listed). hit rate 0.02% among 390,000. AID 624415; in the data active means activity change below about -50%; inconclusive means about -30% to -50%; inactive means above about -30%;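 further: stimulus is agonist 54-4 at its EC80 concentration; on the % scale 0 is the no-effect control and ±100 the full control effect; compound concentration not given in the record; the text of the record puts the active cut at -80%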
#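 Calcium fluorescence in TRPML1-DL cells induced overnight with Tet: a 110 s read after compound pin addition, then a 110 s antagonist read after challenge with 54-4 at 4 uM final (EC80).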
# Sfp PPTase inh – blocks B. subtilis Sfp PPTase activity; hit rate 3.5% among 310,000; Q9F4F7; Potency, µM, for inactives: max response, negative = inhibition, actives largely listed as inhibitors; Biochemical Sfp PPTase activity, qHTS; active means well fitted inhibition curve with a large enough effect; inconclusive means small, poorly fitted or top-dose-only effect, or another doubt; inactive means no such curve, though single readings can be large or run the other way;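 further: the enzyme is Sfp with the accession as filed and its product quenches rhodamine fluorescence; potency means the concentration at half of the fitted maximal effect; 0% = enzyme reaction without inhibitor and -100% = no enzyme wells; top concentration of the series not given in the record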
#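 Compounds were incubated with enzyme (final 15 nM) for 15 min at room temperature before substrate addition started the reaction. Fluorescence at 525 nm excitation, 598 nm emission was recorded immediately and after 30 minutes.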
# TRPV1 potentiator – human TRPV1 potentiation | Q8NER1 | TRPV1-expressing cells, Fluo-8 calcium influx, capsaicin EC20 potentiation; host cell line not named in the record; control for the full effect not named in the record | potentiation, % at 8.33 µM | hit rate 0.02% among 320,000 | AID 540277; active means potentiation above 80%; inconclusive means 30% to 80%; inactive means below 30%; further: 0% is about no effect
#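 Fluo-8 calcium influx in TRPV1-expressing cells, kinetic read (ex 480/em 520 nm). Compound added and read 3 min for agonist activity, followed by capsaicin at EC20 final and 2 min further read for enhancement.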
# Active calls of the source: *; u = inconclusive; x = no result given; & = joins results of further samples; [ ] = another dose, or the depositor's remark.
# Values in the order: Menin MLL FP FL	ClpP mod	PINK1 expr mod	TRPML1 agonist	TRPML1 blocker	Sfp PPTase inh	TRPV1 potentiator
COCCCN1C(=O)C(=O)/C(=C(/O)c2ccc(C)cc2)C1c1ccccc1 (configuration not stated)
    -2.8	0.7%	0.3%	-0.5	24	23%	-4
COc1ccc(-c2cc(C(=O)Nc3c(Cl)cc(Cl)cc3Cl)c3ccccc3n2)cc1OC
    2.2	230%	u	2.0	7	u	14
COC(=O)C1=CN(Cc2ccc(OC)c(OC)c2)C=C(C(=O)OC)C1c1cccc(OC)c1OC
    0.2	-1.8%	2.0%	-1.3	1	-10%	-3
COc1ccc2c(c1)Cc1sc(NC(=O)c3ccc(Cl)cc3)nc1-2
    x	-6.1%	5.8%	-0.5	-7	x	x
CCCC(=O)N1CCC1(C)C(=O)NCc1ccc(C(C)C)cc1 (configuration not stated)
    x	-0.3%	2.0%	-0.7	x	x	x
CCOC(=O)N1CCN(CCC(=O)Nc2ccc(C)c(Br)c2)CC1
    1.0	-1.0%	-1.1%	0.2	2	-17%	-1
COc1ccc(NC(=O)Nc2cccc3ccccc23)cc1S(N)(=O)=O
    2.6	-0.1%	3.8%	-0.9	-5	-1%	-13
COc1ccc(NC(=O)CN2C(=O)C(C)Oc3ccccc32)c(OC)c1 (configuration not stated)
    2.2	-2.0%	-4.6%[38.3 µM]	2.4	2	-11%	1
Cc1cc(C(C)(C)C)cc(C)c1C[n+]1ccc2ccccc2c1
    -6.3	-1.0%	45µM*	2.0	8	13%	8
S=C(Nc1ccccc1)N1CCOCCOCCN(C(=S)Nc2ccccc2)CCOCCOCC1
    -1.8	-3.3%	2.2%	0.5	1	16%	x
O=C(NC1CC(=O)N(c2ccccc2)C1)N1CCN(C(=O)c2ccco2)CC1 (configuration not stated)
    x	1.4%	-0.5%	0.3	4	x	9
O=C(NCc1ccccn1)c1ccc2c(=O)n3nc(Nc4ccccc4)sc3nc2c1
    5.3	11%	5.0%	-0.4	-6	21%	3
Nc1c(N(Cc2ccco2)C(=O)c2ccc(Br)cc2)c(=O)[nH]c(=O)n1Cc1ccccc1
    x	-8.5%	0.4%	1.1	2	x	9
O=C(Oc1ccccc1)c1cc2ccccc2o1
    4.1	-1.5%	-0.2%	0.6	-10	11%	-31
CN(C)C(=O)CCc1ccc2c3c([nH]c2c1)[C@]1(C)[C@@H](C(=O)N2CCOCC2)C[C@H](CC(=O)NCc2cccc(C(F)(F)F)c2)C(=O)N1CC3
    x	0.3%	1.3%	-0.2	-3	x	x
O=C(Nc1ccc(Cl)cc1)C1CCCN(S(=O)(=O)c2cnc[nH]2)C1 (configuration not stated)
    -0.5	3.5%	0.7%	-0.5	16	-10%	-5
CC(C)C(=O)NC(Nc1ccccc1F)C(Cl)(Cl)Cl (configuration not stated)
    -0.4	-2.8%	-3.5%[38.3 µM]	-0.3	1	5%	-4
NC(=O)c1nnn(-c2cccc(C(F)(F)F)c2)c1-c1ccccc1
    3.8	1.2%	0.0%	-0.6	19	3%	4
OC(CSc1ccccc1)CN1CCN(c2cccc(Cl)c2)CC1 (configuration not stated)
    x	x	14%	-0.1	-10	x	x
Cc1ccc(CNC(=O)Nc2cc(C(=O)NCc3cccc(F)c3)ccc2N2CCCC2)cc1
    x	-5.0%	3.9%	0.9	-9	x	x
CCC1(c2ccc(Cl)cc2)NC(=O)N(Cc2ccc(C(=O)OC)cc2)C1=O (configuration not stated)
    3.2	x	0.6%	4.2	7	-1%	-9
COc1ccc(OCC(=O)Nc2cc(OC)cc(OC)c2)cc1
    2.5	-0.7%	-3.7%[38.3 µM]	-0.2	3	-2%	u
Cc1ccc(-c2nn(-c3cccc(F)c3)cc2CN(Cc2nccn2C)C(C)C)o1
    -0.1	x	2.6%	2.6	14	40µM*	-7
Cc1cc(C)c2c(n1)sc1c(-c3ccccc3)c(C#N)c(N)nc12
    3.1	58%	1.1%	0.2	86	-8%	-2
CC1(C)CC(=O)C=C(NC2CCCC(O)C2)C1 (configuration not stated)
    x	-2.4%	-1.8%	-0.3	2	x	u
CCCCOc1ccc(/C(O)=C2/C(=O)C(=O)N(Cc3cccnc3)C2c2ccncc2)c(C)c1 (configuration not stated)
    2.7	0.4%	5.2%	0.2	6	2%	20
CCN1C(=O)c2ccccc2S(=O)c2ccc(C(=O)NCCCN3CCCC3=O)cc21 (configuration not stated)
    8.0	1.6%	0.8%	-0.3	23	2%	0
CSc1nc(C)nc(N/C=C(\C#N)S(=O)(=O)c2ccccc2Cl)n1
    1.5	1.0%	1.0%	-0.6	-6	4%	-1
Cc1ccc(-n2nnnc2SCC(=O)Nc2sccc2C#N)cc1
    19	-0.7%	u	-0.1	-12	-4%	12
Cc1cccc(NC(=O)Nc2nnc(N3CCCCC3C)s2)c1C (configuration not stated)
    3.3	0.2%	0.1%	-0.1	-14	-5%	-7
CCOC(=O)C1=C[C@@H](C2CCCC2)N(S(=O)(=O)c2ccc([N+](=O)[O-])cc2)[C@H]1c1ccccc1
    x	-1.0%	0.2%	-0.5	x	x	x
O=C(C[n+]1ccccc1)Nc1c(Cl)cc(Cl)cc1Cl
    u	x	0.2%	-0.2	-1	20µM*	9
COc1ccc(S(=O)(=O)Nc2cc(C(=O)NCCCOC(C)C)ccc2N2CCOCC2)cc1
    -5.3	0.2%	-1.4%	0.4	38	12%	8
COc1cccc(NC(=O)CSc2nc3ccccc3nc2N2CCCC2)c1
    8.5	-26%	2.2%	0.2	-1	-10%	u
CCOc1cc(NC(=S)NCCCN2CCOCC2)c(OCC)cc1NC(=O)C(C)C
    3.2	1.2%	0.6%	-0.3	22	u	-3
Cc1ccc(CNC(=O)CCC2CCCN(Cc3cccc4ncccc34)C2)o1 (configuration not stated)
    -0.2	x	12%	1.9	-11	6%	7
Cc1cccc(C)c1OCCNC(=O)C(=O)NCc1ccco1
    0.2	x	6.2%	0.8	1	-7%	1
COCCNC(=O)C(c1ccccc1C)N(CCOC)C(=O)Cn1nnc2ccccc21 (configuration not stated)
    2.9	0.8%	0.0%	0.1	-21	11%	0
CCOC(=O)C1CCCN(C(=O)Cc2ccc(OC)c(OC)c2)CC1 (configuration not stated)
    x	0.4%	0.1%	-0.8	x	x	x
O=C(CSc1n[nH]c(-c2ccncc2)n1)Nc1ccccc1C(F)(F)F
    -0.4	x	-1.6%	0.2	2	-14%	-3

# Given with bars between the fields: entries from further up
Structure | Menin MLL FP FL | ClpP mod | PINK1 expr mod | TRPML1 agonist | TRPML1 blocker | Sfp PPTase inh | TRPV1 potentiator
COc1cccc(NC(=O)CSc2nc3ccccc3nc2N2CCCC2)c1 | 8.5 | -26% | 2.2% | 0.2 | -1 | -10% | u
CCOc1cc(NC(=S)NCCCN2CCOCC2)c(OCC)cc1NC(=O)C(C)C | 3.2 | 1.2% | 0.6% | -0.3 | 22 | u | -3

# Carrying on.
# Values in the order: Menin MLL FP FL	ClpP mod	PINK1 expr mod	TRPML1 agonist	TRPML1 blocker	Sfp PPTase inh	TRPV1 potentiator
O=C(NCc1ccccn1)c1cccc(NS(=O)(=O)c2cccc(F)c2)c1
    3.9	-0.6%	1.0%	-0.7	13	-6%	7
O=C1OC(Nc2ccc(F)c([N+](=O)[O-])c2)c2ccccc21 (configuration not stated)
    2.6	-5.6%	2.5%	-0.2	15	-8%	12
CCOc1cc(CN2CCN(CCc3ccccc3)C(CCO)C2)ccc1OC (configuration not stated)
    -2.0	-0.4%	-0.7%	-0.3	31	14%	3
Cc1cccc(C2=N/C(=C\c3cccnc3)C(=O)O2)c1
    -2.9	0.1%	0.2%	-0.2	4	17%	4
CCOc1ccc(S(=O)(=O)NCCC(=O)N2CC(C)CC(C)C2)cc1 (configuration not stated)
    x	x	3.4%	1.8	-10	x	-11
CCOC(=O)c1ccc(COc2nc3ccccc3nc2-c2ccccc2NC(C)=O)o1
    -1.5	1.8%	4.3%	0.3	-10	u	u
COc1cc(C(=O)Nn2c(C)nc3ccccc3c2=O)cc(OC)c1OC
    3.4	0.5%	3.9%	-0.9	3	17%	1
O=C(CS(=O)CC(=O)N(c1cccc(F)c1)C(C(=O)NC1CCCCC1)c1ccco1)Nc1ccc(F)cc1 (configuration not stated)
    0.8	0.6%	3.3%	0.0	10	13%	0
CCC(C)(C)n1nnnc1C(C(C)C)N(Cc1ccco1)Cc1cc2cc3c(cc2[nH]c1=O)OCO3 (configuration not stated)
    u	32µM*	-7.5%[38.3 µM]	2.8	36	u	-13
O=C(COn1nnc2ccc(Cl)cc21)NC1CCS(=O)(=O)C1 (configuration not stated)
    x	-15%	0.1%	0.2	-6	x	1
COc1ncnc2c1oc1nc(CC(C)C)c3c(c12)CCCC3
    0.5	-3.7%	4.8%	0.4	9	-1%	17
CCCc1[nH]nc2c1C(c1ccc(O)c(OC)c1)C(C#N)=C(N)O2 (configuration not stated)
    3.3	-1.3%	-5.2%[38.3 µM]	-0.3	-2	-6%	15
O=C(Cn1nnc2c(cnn2-c2ccccc2)c1=O)NCc1cccs1
    -3.6	5.9%	8.4%	-1.3	-1	6%	-21
C=CCn1c(CNC(=O)c2cccs2)nnc1SCC(=O)c1ccc(Br)cc1
    0.2	0.0%	-17%[38.3 µM]	-0.7	-7	12%	10
O=C(/C=C\Nc1ccc(S(=O)(=O)Nc2ncccn2)cc1)c1cccc2ccccc12
    4.9	-1.2%	-1.2%	-0.8	18	27%	22
CCCn1c(CCNC(=O)c2cccs2)nc2ccccc21
    1.2	1.0%	-0.8%	-0.8	23	8%	-3
Cc1ccc(NC(=O)c2cc(S(=O)(=O)NCCC3=CCCCC3)ccc2F)cc1F
    1.2	-8.5%&-3.8%	18%&9.3%	2.3&4.3	32&6	38%	-1

# Just Sfp PPTase inh and PINK1 expr mod (4 entries from above):
molecule | Sfp PPTase inh | PINK1 expr mod
CCCc1[nH]nc2c1C(c1ccc(O)c(OC)c1)C(C#N)=C(N)O2 (configuration not stated) | -6% | -5.2%[38.3 µM]
O=C(Cn1nnc2c(cnn2-c2ccccc2)c1=O)NCc1cccs1 | 6% | 8.4%
C=CCn1c(CNC(=O)c2cccs2)nnc1SCC(=O)c1ccc(Br)cc1 | 12% | -17%[38.3 µM]
O=C(/C=C\Nc1ccc(S(=O)(=O)Nc2ncccn2)cc1)c1cccc2ccccc12 | 27% | -1.2%
